Bioassay records deposited in PubChem by Broad Institute.
HIV Env fusion = blocks HIV Env-driven cell-cell fusion | HeLa-JRFL Env/CEM21 cell fusion, luciferase | inhibition, % at 12.3 µM | 360,000 compounds, 1.1% hits | AID 651610;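 active means mean replicate inhibition score of at least 50 and every replicate individually at or above 50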;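 further: 0% = plate neutral controls and 100% = maraviroc near 300 nM; one replicate is shown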
UUG fidelity = yeast start codon fidelity modulation; S. cerevisiae UUG-firefly luciferase reporter, luminescence/redox ratio; activity score, % at 18.7 µM; 350,000 compounds, 0.13% hits; AID 602363;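 active means replicate mean at a twofold rise or more, about +100% in these data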;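 further: firefly luciferase made from a UUG start codon reports start codon fidelity; reporter light over untreated wells divided by growth signal over untreated wells; some hits fall short of that in this replicate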
* hit, by the source's call; & = joins results of further samples; [ ] = dose if it differs, or a comment. Only part of the results is shown; rates above refer to the full screens.

Start of the listing, in advance:
SMILES	HIV Env fusion	UUG fidelity
Cc1ccc(S(=O)(=O)N[C@H]2CC[C@H](CCNC(=O)Nc3ccc(Cl)cc3)O[C@@H]2CO)cc1	-18[16.7 µM]	10
COC(=O)C[C@@H]1C=C[C@H](NS(=O)(=O)c2ccccc2F)[C@H](CO)O1	-17[16.7 µM]	-14
C[C@@H]1CN([C@H](C)CO)C(=O)c2cc(NC(=O)C3CC3)ccc2O[C@@H]1CN(C)Cc1ccc(Oc2ccccc2)cc1	-4[16.7 µM]	32

Results, previewed entries included:
SMILES	HIV Env fusion	UUG fidelity
Cc1ccc(S(=O)(=O)N[C@H]2CC[C@H](CCNC(=O)Nc3ccc(Cl)cc3)O[C@@H]2CO)cc1	-18[16.7 µM]	10
COC(=O)C[C@@H]1C=C[C@H](NS(=O)(=O)c2ccccc2F)[C@H](CO)O1	-17[16.7 µM]	-14
C[C@@H]1CN([C@H](C)CO)C(=O)c2cc(NC(=O)C3CC3)ccc2O[C@@H]1CN(C)Cc1ccc(Oc2ccccc2)cc1	-4[16.7 µM]	32
O=C(NCC[C@@H]1CC[C@@H](NC(=O)C2CCCCC2)[C@H](CO)O1)Nc1ccc(Cl)cc1	-16[16.7 µM]	14
O=C(N[C@@H]1CC[C@@H](CCNS(=O)(=O)c2ccc(F)cc2)O[C@@H]1CO)C1CC1	-11[16.7 µM]	6
CCC(=O)N(C)C[C@H]1Oc2cc(C#Cc3ccncc3)ccc2S(=O)(=O)N([C@H](C)CO)C[C@@H]1C	-13[16.7 µM]	-3
Cc1ccc(S(=O)(=O)Nc2cccc3c2O[C@H](CN(C)C(=O)Nc2ccc(F)cc2)[C@@H](C)CN([C@H](C)CO)C3=O)cc1	-5[16.7 µM]	-5
C[C@@H]1CN([C@H](C)CO)C(=O)c2cc(NC(=O)Nc3ccc(F)cc3)ccc2O[C@H]1CN(C)Cc1ccccc1	-6[16.7 µM]	-2
COc1ccc(S(=O)(=O)Nc2ccc3c(c2)C(=O)N([C@@H](C)CO)C[C@@H](C)[C@H](CN(C)C(=O)c2ccccc2)OCCCC[C@@H](C)O3)cc1	-19[16.7 µM]	7
COc1cccc(C#Cc2ccc([C@H]3[C@@H](CO)N(C(=O)C4CCCCC4)[C@H]3C#N)cc2)c1	6[16.7 µM]	-3
C[C@@H]1CN([C@H](C)CO)C(=O)c2cc(NS(=O)(=O)c3ccccc3)ccc2O[C@@H](C)CCCCO[C@@H]1CN(C)C(=O)c1ccccc1	-5[16.7 µM]	-11
C[C@@H]1CCCCO[C@@H](CN(C)Cc2ccncc2)[C@H](C)CN([C@H](C)CO)C(=O)c2cc(NS(=O)(=O)c3ccccc3)ccc2O1	10[16.7 µM]	6
CN(C)CC(=O)Nc1ccc2c(c1)[C@@H]1C[C@H](CC(=O)NCc3ccc4c(c3)OCO4)O[C@H](CO)[C@@H]1O2	-2[16.7 µM]	-3
C[C@H]1CN([C@@H](C)CO)C(=O)Cc2cc(NC(=O)Nc3ccc(C(F)(F)F)cc3)ccc2O[C@H]1CN(C)S(=O)(=O)c1cccs1	15[16.7 µM]	1
C[C@H]1CN([C@@H](C)CO)C(=O)c2cc(NS(=O)(=O)c3ccccc3)ccc2O[C@H]1CN(C)C(=O)Nc1ccccc1	3[16.7 µM]	-7
Cc1noc(C)c1S(=O)(=O)Nc1ccc2c(c1)CC(=O)N([C@@H](C)CO)C[C@H](C)[C@H](CN(C)C(=O)Nc1ccc(F)cc1)O2	22[16.7 µM]	4
COc1ccc(NC(=O)Nc2ccc3c(c2)C(=O)N([C@H](C)CO)C[C@H](C)[C@H](CN(C)S(=O)(=O)c2ccccc2)O3)cc1	47[16.7 µM]	-5
Cc1ccc(S(=O)(=O)N(C)C[C@@H]2Oc3c(NC(=O)NC4CCCCC4)cccc3C(=O)N([C@H](C)CO)C[C@@H]2C)cc1	4[16.7 µM]	25
COc1ccc(NC(=O)N(C)C[C@@H]2Oc3ccc(NC(=O)Nc4c(C)noc4C)cc3CC(=O)N([C@@H](C)CO)C[C@@H]2C)cc1	15[16.7 µM]	-3
O=C(NCC[C@@H]1CC[C@H](NS(=O)(=O)c2cccc(F)c2)[C@@H](CO)O1)C1CCOCC1	9[16.7 µM]	-8
C[C@@H]1CN([C@@H](C)CO)S(=O)(=O)c2ccc(C#CC3CCCC3)cc2O[C@H]1CN(C)C(=O)Cc1ccccc1	25[16.7 µM]	-5
O=C(C[C@@H]1C[C@H]2c3cc(NC(=O)c4ccc5c(c4)OCO5)ccc3O[C@H]2[C@H](CO)O1)NCc1ccc(Cl)cc1	14[16.7 µM]	30
COCCCN1C(=O)C(CC(=O)NC2CCCCC2)CC(C(=O)N(C(C)C)C(C)C)=C1C (stereo unspecified)	-2	-8
Cc1ccc(S(=O)(=O)N(C)C[C@@H]2OCCCC[C@H](C)Oc3ccc(NC(=O)NC(C)C)cc3C(=O)N([C@@H](C)CO)C[C@H]2C)cc1	-9[16.7 µM]	7
Cc1ccc(S[C@]2(C(=O)NC3CC3)CC(=O)N(C3CCCCC3)[C@@H]2c2ccc(CO)cc2I)cc1	-5[16.7 µM]	-9

Four consecutive records out of the list so far:
SMILES	HIV Env fusion	UUG fidelity
O=C(N[C@@H]1CC[C@@H](CCNS(=O)(=O)c2ccc(F)cc2)O[C@@H]1CO)C1CC1	-11[16.7 µM]	6
CCC(=O)N(C)C[C@H]1Oc2cc(C#Cc3ccncc3)ccc2S(=O)(=O)N([C@H](C)CO)C[C@@H]1C	-13[16.7 µM]	-3
Cc1ccc(S(=O)(=O)Nc2cccc3c2O[C@H](CN(C)C(=O)Nc2ccc(F)cc2)[C@@H](C)CN([C@H](C)CO)C3=O)cc1	-5[16.7 µM]	-5
C[C@@H]1CN([C@H](C)CO)C(=O)c2cc(NC(=O)Nc3ccc(F)cc3)ccc2O[C@H]1CN(C)Cc1ccccc1	-6[16.7 µM]	-2

(more compounds)
SMILES	HIV Env fusion	UUG fidelity
C[C@H]1CN([C@@H](C)CO)C(=O)Cc2cc(NC(=O)NC3CCCCC3)ccc2O[C@H]1CN(C)Cc1ccc(C(F)(F)F)cc1	-4[16.7 µM]	1
CC(C)CC#Cc1ccc2c(c1)O[C@H](CN(C)C(=O)Cc1ccccn1)[C@@H](C)CN([C@H](C)CO)S2(=O)=O	2[16.7 µM]	8
C[C@H](CO)N1C[C@H](C)[C@@H](CN(C)C)Oc2cc(-c3cccc(C(=O)N(C)C)c3)ccc2S1(=O)=O	-11[16.7 µM]	-3
C[C@@H]1CN([C@H](C)CO)C(=O)c2cc(NC(=O)c3ccncc3)ccc2O[C@@H](C)CCCCO[C@@H]1CN(C)S(=O)(=O)c1ccc(F)cc1	28[16.7 µM]	19
COc1ccc(S(=O)(=O)Nc2ccc3c(c2)C(=O)N([C@@H](C)CO)C[C@H](C)[C@@H](CN(C)Cc2ccc(C(F)(F)F)cc2)OCCCC[C@@H](C)O3)cc1	14[16.7 µM]	12
COc1ccc(S(=O)(=O)N(C)C[C@@H]2Oc3ccc(NS(=O)(=O)c4c(C)noc4C)cc3CC(=O)N([C@@H](C)CO)C[C@@H]2C)cc1	18[16.7 µM]	12
COc1ccc(S(=O)(=O)N(C)C[C@@H]2Oc3c(NS(=O)(=O)c4ccc(Cl)cc4)cccc3C(=O)N([C@@H](C)CO)C[C@@H]2C)cc1	23[16.7 µM]	-12
COC(=O)C[C@@H]1CC[C@@H]2[C@H](COC[C@H](O)CN2S(=O)(=O)c2ccc(F)cc2)O1	14[16.7 µM]	8
O=C(C[C@H]1C[C@H]2c3cc(NC(=O)c4ccc5c(c4)OCO5)ccc3O[C@H]2[C@@H](CO)O1)NC1CCCC1	-20[16.7 µM]	-16
C[C@H]1CN([C@@H](C)CO)C(=O)Cc2cc(NC(=O)Nc3ccc(C(F)(F)F)cc3)ccc2O[C@@H]1CN(C)C(=O)NC1CCCCC1	-78[16.7 µM]	1
O=C(N[C@@H]1CC[C@H](CCNS(=O)(=O)c2ccccc2Cl)O[C@@H]1CO)c1ccc(F)cc1	-3[16.7 µM]	4
CO[C@@H]1CN(C)C(=O)c2cc(NC(C)=O)ccc2OC[C@@H](C)N(C(=O)c2ccccc2)C[C@@H]1C	-12[16.7 µM]	-5
CC(C)C#Cc1ccc2c(c1)O[C@H](CN(C)C(=O)NC(C)C)[C@@H](C)CN([C@@H](C)CO)S2(=O)=O	-19[16.7 µM]	26
C[C@H](CO)N1C[C@H](C)[C@H](CN(C)C(=O)Nc2ccc(F)cc2)Oc2ncc(-c3cccc(C(F)(F)F)c3)cc2C1=O	6[16.7 µM]	25
Cc1cccc(NC(=O)C[C@H]2CC[C@H]3[C@@H](COc4ccc(NC(=O)NC(C)C)cc4C(=O)N3C)O2)c1	-10[16.7 µM]	0
C[C@@H]1CCCCO[C@@H](CN(C)C(=O)Nc2ccc3c(c2)OCO3)[C@H](C)CN([C@H](C)CO)C(=O)c2cc(NS(=O)(=O)c3ccccc3)ccc2O1	-22[16.7 µM]	5
COc1ccc(NC(=O)N[C@H]2CC[C@H](CCn3cc(C4(O)CCCC4)nn3)O[C@H]2CO)cc1	1[16.7 µM]	-6
C/C=C/c1cnc2c(c1)C(=O)N([C@H](C)CO)C[C@H](C)[C@H](CN(C)Cc1ccccc1F)O2	21[16.7 µM]	0
Cc1ccccc1-c1ccc2c(c1)O[C@@H](CN(C)C)[C@H](C)CN([C@@H](C)CO)S2(=O)=O	29[16.7 µM]	-2
C[C@H]1CCCCO[C@H](CN(C)C(=O)CCCN(C)C)[C@@H](C)CN([C@@H](C)CO)C(=O)c2cc(NS(C)(=O)=O)ccc2O1	-21[16.7 µM]	10
C[C@@H]1CCCCO[C@H](CN(C)Cc2ccccc2)[C@@H](C)CN([C@@H](C)CO)C(=O)c2cc(NC(=O)Nc3ccccc3)ccc2O1	-41[16.7 µM]	10
COc1cccc(-c2cnc3c(c2)C(=O)N([C@@H](C)CO)C[C@H](C)[C@@H](CN(C)CC2CCOCC2)O3)c1	-19[16.7 µM]	-3
C=CCN1Cc2ccccc2[C@@H]2OC(c3ccc(OCCCO)cc3)=N[C@]2(CCS(=O)(=O)c2ccccc2)C1=O	19[16.7 µM]	3
C[C@H](CO)N1C[C@H](C)[C@@H](CN(C)S(C)(=O)=O)Oc2c(NC(=O)C3CCCCC3)cccc2C1=O	21[16.7 µM]	-11&0
C[C@@H]1CN([C@@H](C)CO)S(=O)(=O)c2ccc(C#Cc3ccccc3)cc2O[C@H]1CN(C)C(=O)Nc1ccc2c(c1)OCO2	16[16.7 µM]	2
SMILES	HIV Env fusion	UUG fidelity
COc1ccc(NC(=O)N(C)C[C@@H]2Oc3c(NC(=O)Nc4ccccc4)cccc3C(=O)N([C@H](C)CO)C[C@H]2C)cc1	-14[16.7 µM]	6
CC(=O)N(C)C[C@@H]1Oc2ncc(C#CCc3ccccc3)cc2C(=O)N([C@@H](C)CO)C[C@@H]1C	8[16.7 µM]	17
O=C(C[C@@H]1CC[C@H](NC(=O)Nc2cccc(F)c2)[C@H](CO)O1)NCC1CC1	-8[16.7 µM]	-10
C[C@@H]1CN([C@@H](C)CO)C(=O)c2cc(NC(=O)C3CCCCC3)ccc2O[C@@H](C)CCCCO[C@H]1CN(C)S(=O)(=O)c1cn(C)cn1	1[16.7 µM]	5
COc1ccc(S(=O)(=O)N[C@@H]2CC[C@H](CCn3cc(C(C)C)nn3)O[C@@H]2CO)cc1	-11[16.7 µM]	-9
C[C@@H]1CCCCO[C@H](CN(C)C(=O)CCC(F)(F)F)[C@@H](C)CN([C@@H](C)CO)C(=O)c2cc(NS(=O)(=O)c3ccccc3)ccc2O1	-7[16.7 µM]	1
CC(C)NC(=O)Nc1ccc2c(c1)C(=O)N(C)[C@@H]1CC[C@@H](CC(=O)NCC3CCCCC3)O[C@H]1CO2	5[16.7 µM]	12
C[C@H](CO)N1C[C@H](C)[C@H](CN(C)Cc2ccc(C(F)(F)F)cc2)Oc2ccc(NC(=O)C3CCCCC3)cc2C1=O	13[16.7 µM]	16
C[C@H](CO)N1C[C@H](C)[C@H](CN(C)C)Oc2ncc(-c3ccc(C(=O)N(C)C)cc3)cc2C1=O	-8[16.7 µM]	-1
O=C(Nc1ccccc1F)N[C@H]1CC[C@H](CCNS(=O)(=O)c2ccc(Cl)cc2)O[C@@H]1CO	-2[16.7 µM]	-8
COc1ccc(CN(C)C[C@@H]2OCCCC[C@H](C)Oc3ccc(NC(=O)Cc4ccccc4)cc3C(=O)N([C@H](C)CO)C[C@@H]2C)cc1	-30[16.7 µM]	23
C[C@H](CO)N1C[C@H](C)[C@H](CN(C)S(=O)(=O)c2ccc(F)cc2)Oc2c(NC(=O)Nc3ccc(F)cc3)cccc2C1=O	13[16.7 µM]	7
C/C=C/c1ccc2c(c1)O[C@H](CN(C)C(=O)c1ccccc1F)[C@H](C)CN([C@H](C)CO)S2(=O)=O	21[16.7 µM]	20
CCCN(C)C[C@H]1Oc2ncc(C#CC3CC3)cc2C(=O)N([C@H](C)CO)C[C@@H]1C	-8[16.7 µM]	26
C[C@H](CO)N1C[C@H](C)[C@@H](CN(C)Cc2cncnc2)Oc2cc(C3=CCCC3)ccc2S1(=O)=O	4[16.7 µM]	-9
C[C@@H]1CN([C@H](C)CO)C(=O)c2cc(NC(=O)Cc3ccccc3)ccc2O[C@@H]1CN(C)S(=O)(=O)c1ccccc1	-8[16.7 µM]	18
C[C@H]1CCCCO[C@@H](CN(C)C(=O)Nc2ccc(C(F)(F)F)cc2)[C@@H](C)CN([C@@H](C)CO)C(=O)c2cc(NC(=O)C3CCCCC3)ccc2O1	10[16.7 µM]	-15
CCCNC(=O)N(C)C[C@@H]1Oc2ncc(C#CC3CCCCC3)cc2C(=O)N([C@H](C)CO)C[C@@H]1C	-4[16.7 µM]	51
N#C[C@H]1[C@H](c2ccc(C#CCC3CCCC3)cc2)[C@@H](CO)N1C(=O)c1ccccn1	-3[16.7 µM]	-2
